Screening data as filed in PubChem BioAssay.
HSV replic up – enhancers of HSV replication in host cells, fold increase, host cell viability; HSV replication augmentation in cells; maximum fold increase; hit rate 0.005% among 220,000; AID 1956, 2009;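 active means peak rise of 1.5-fold or more in the series; tested in PC3 cells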;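 further: first round at 10 µM; read as green reporter fluorescence; hits show the peak of a series up to 25 µM; 1 = signal of infected wells without compound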
GALR2 ag – GALR2 receptor agonists, primary screen, cell-based. Galanin receptor type 2 (Homo sapiens), O43603. GALR2-expressing cells, agonist activation read-out. activation, %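 (tested at 5 µM)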. hit rate 0.48% among 140,000. AID 803, 2007;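 active means above mean plus 3 SD of all compounds, about 5% in these data, not always enough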;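 further: 0% = vehicle buffer wells and 100% = reference agonist at full effect; tested in CHO reporter cells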
Target sequence (O43603 whole entry, looked up): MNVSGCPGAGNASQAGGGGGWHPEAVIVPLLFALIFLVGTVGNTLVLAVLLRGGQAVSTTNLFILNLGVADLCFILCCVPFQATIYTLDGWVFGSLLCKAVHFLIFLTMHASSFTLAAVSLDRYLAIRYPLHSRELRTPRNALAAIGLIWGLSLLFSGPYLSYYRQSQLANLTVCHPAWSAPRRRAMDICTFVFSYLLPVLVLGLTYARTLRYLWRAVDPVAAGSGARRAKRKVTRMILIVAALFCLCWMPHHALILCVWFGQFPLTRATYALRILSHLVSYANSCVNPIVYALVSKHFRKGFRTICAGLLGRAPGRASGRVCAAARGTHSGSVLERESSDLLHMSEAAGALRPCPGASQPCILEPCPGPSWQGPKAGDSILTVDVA
INS promoter inh – inhibitors of insulin promoter-driven GFP, primary screen, imaging, TRM-6 cells (human fetal islet line), eGFP reporter, cell count; inhibition, % at 2 µM; AID 1273, 2008; reporter expression induced with tamoxifen; hit rate 0.9% among 130,000;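 active means inhibition above the mean plus 3 SD, with well images judged a real hit on visual review, cut at about 60% in these data, passing the limit was not always enough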
PKD1 kinase inh – inhibitors of human PKD1 kinase, biochemical, fluorescence polarization | AID 797, 2007 | inhibition, %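 (about 10 µM by stock and volumes)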 | PKD1 kinase fluorescence polarization assay | hit rate 0.056% among 200,000;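 active means inhibition of 50% or more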;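 further: controls were vehicle for no effect and a reference inhibitor for full effect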
RGS16-Gao – modulators of RGS16 binding to Galphao, primary screen, biochemical, human proteins, multiplexed bead flow cytometry; bead-based flow cytometry RGS16-Galphao binding, fluorescence; actives lie on both sides; binding response (% of control), % at 10 µM; hit rate 0.38% among 220,000; AID 1441, 2008;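 active means below 25% or above 175%, edge rows of some plates excepted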;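 further: Galphao activated by GDP with aluminum fluoride before binding; 100% = wells without compound and 0% = beads without RGS; some results beyond the cut were filed as inactive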
Target sequence (O15492 whole entry, looked up): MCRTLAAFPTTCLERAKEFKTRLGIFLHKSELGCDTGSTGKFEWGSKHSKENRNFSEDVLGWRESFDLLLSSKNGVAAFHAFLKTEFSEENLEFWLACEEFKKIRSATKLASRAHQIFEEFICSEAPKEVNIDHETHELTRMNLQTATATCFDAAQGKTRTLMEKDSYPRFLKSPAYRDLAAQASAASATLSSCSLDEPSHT
Target sequence (P09471 whole entry, looked up): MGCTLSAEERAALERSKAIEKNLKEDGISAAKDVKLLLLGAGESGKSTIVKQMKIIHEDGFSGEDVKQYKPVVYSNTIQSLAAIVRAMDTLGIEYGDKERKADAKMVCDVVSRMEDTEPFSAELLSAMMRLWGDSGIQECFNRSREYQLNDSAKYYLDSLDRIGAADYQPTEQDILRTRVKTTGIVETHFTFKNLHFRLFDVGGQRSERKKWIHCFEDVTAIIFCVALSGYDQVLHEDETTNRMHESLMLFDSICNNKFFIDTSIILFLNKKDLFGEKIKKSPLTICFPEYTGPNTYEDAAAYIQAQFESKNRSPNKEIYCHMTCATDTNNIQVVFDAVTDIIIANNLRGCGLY
INS promoter inh cell count – further read-out of INS promoter inh, marked with its call; normalized cell count, %; measured here: cell count, toxicity; reference of the scale not given here;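 cells exposed to compound for 48 h; stained nuclei by imaging scaled within each plate; lower means fewer cells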
HSV replic up primary fold – further read-out of HSV replic up, marked with its call; fold increase; compound at 10 µM; measured here: primary screen fold increase 10 uM; tested in PC3 cells;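 GFP signal in the first replicate; 1 = infected wells without compound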
Active calls of the source: *; i = inactive; . = not tested or not shown. No enrichment for hits, and some 1.3% of all compounds hit somewhere here.

The line under a structure holds: HSV replic up, HSV replic up primary fold, GALR2 ag, INS promoter inh, INS promoter inh cell count, PKD1 kinase inh, RGS16-Gao
- CC(C)C[C@H](N)c1cn([C@@H](CCCCN)C(=O)N2CCNCC2)nn1
 : i, 0.95, ., ., ., 0, 98
- Cc1ccc(OCC(O)CN2CC3(C)CC2CC(C)(C)C3)cc1 (configuration not stated)
 : i, 0.88, 0.6, ., ., -5, 104
- Cn1nc(C(F)(F)F)cc1-c1ccc(/C=C(\C#N)C(=O)c2cccc(C(F)(F)F)c2)s1
 : i, 0.99, ., ., ., ., 90
- O=C(CSc1ccc2c(c1)OCCO2)Nc1ccc(N2CCOCC2)cc1
 : i, 1.1, ., ., ., 6, 107
- CC1Cc2ccccc2N1C(=O)CNCCCN(C)C (configuration not stated)
 : ., ., -1.4, -8, 139, -3, 104
- CCOc1cc(C(=O)Nc2ccccc2N2CCN(S(C)(=O)=O)CC2)cc(OCC)c1OCC
 : i, 0.85, -1.6, 7, 82, -3, 103
- Cc1ccc(CNC(=O)CNC(=S)N(Cc2ccccc2)Cc2cccnc2)cc1
 : i, 1.1, ., -17, 29, -1, 117
- O=C(CSc1n[nH]c(-c2ccccc2)n1)NC(=O)NCc1ccco1
 : i, 0.85, -3.5, -40, 114, -1, 99
- O=C(CSc1ccc(F)cc1)NCCSc1ccccc1
 : ., ., ., -15, 91, -2, 82
- CC(C)(C)C(=O)c1cn(CC(=O)O)c2ccccc12
 : i, 0.98, ., -25, 104, -1, 99
- CCS(=O)(=O)N1CCCC(c2nc(-c3cccc(OC)c3)no2)C1 (configuration not stated)
 : i, 0.86, -3.3, 11, 52, 5, 98
- Cc1cccc(NC(=O)CCN2C(=O)c3ccccc3C2=O)n1
 : i, 0.93, -1.0, 0, 86, 1, 100
- O=C(NC1(C(F)(F)F)N=C2SCCN2C1=O)c1ccco1 (configuration not stated)
 : i, 1.3, 0.3, 7, 69, -7, 103
- Cn1ncc(Cl)c1C(=O)N1CCOCC1
 : i, 1, ., -10, 123, 10, 100
- CC(=O)N1C(=O)/C(=C2\SC(=S)N(NS(=O)(=O)c3ccc(C)cc3)C2=O)c2ccccc21
 : i, 0.99, ., ., ., 5, 81
- COCCOc1cc(NC(=O)c2cccc(OC)c2)c(Cl)cc1Cl
 : i, 0.84, ., 6, 89, -3, 104
- CC(c1ccco1)N(C(=O)Nc1ccccc1)C1CCCCC1 (configuration not stated)
 : i, 1.1, -2.2, 11, 133, 0, 100
- CCc1nnc(NS(=O)(=O)c2ccc(NC(=O)COc3ccc(Cl)c(C)c3)cc2)s1
 : i, 1.1, ., -27, 74, -3, 92
- CCC(=O)Nc1ccc(C(=O)NNC(=O)COc2cccc(C)c2)cc1
 : i, 1.1, -0.3, -3, 96, -3, 105
- Cc1cc(NC(=O)CN2CCN(Cc3ccccc3)CC2)nc2c1c(=O)oc1ccccc12
 : ., ., ., ., ., -1, 116

Single records, as listed above. Order of screens: HSV replic up, HSV replic up primary fold, GALR2 ag, INS promoter inh, INS promoter inh cell count, PKD1 kinase inh, RGS16-Gao
`CC1Cc2ccccc2N1C(=O)CNCCCN(C)C` (configuration not stated) is listed as ., ., -1.4, -8, 139, -3, 104
`O=C(CSc1n[nH]c(-c2ccccc2)n1)NC(=O)NCc1ccco1` is listed as i, 0.85, -3.5, -40, 114, -1, 99
`Cn1ncc(Cl)c1C(=O)N1CCOCC1` is listed as i, 1, ., -10, 123, 10, 100
`Cc1cccc(NC(=O)CCN2C(=O)c3ccccc3C2=O)n1` is listed as i, 0.93, -1.0, 0, 86, 1, 100

Additional results follow:
The line under a structure holds: HSV replic up, HSV replic up primary fold, GALR2 ag, INS promoter inh, INS promoter inh cell count, PKD1 kinase inh, RGS16-Gao
- COCCCNC(=O)c1ccccc1Oc1ccccc1
 : i, 1, -2.4, 17, 80, -2, 100
- COc1ccc(-c2cn3ccc(C)cc3n2)cc1
 : i, 0.98, ., ., ., ., 93
- COc1ccc(OCC#CCNC(C)(C)C)cc1
 : i, 1, -2.4, -68, 164, -3, 105
- CCOC(=O)c1cc(C(=O)OCC)cc(-n2cc(O)c(C(=O)OCC)n2)c1
 : i, 1.2, 0.0, -19, 185, -4, 92
- CC(C)CNC(=S)NC1CC2CCC(C1)N2Cc1ccccc1 (configuration not stated)
 : i, 0.82, -2.0, 17, 48, 5, 103
- CCOc1ccc(NC(=S)N2CCn3c(nc4ccccc43)C2)cc1
 : i, 1, ., ., ., 0, 95
- CN(C)CCNC(=O)c1cc2c(s1)-c1ccccc1OC2
 : i, 0.64, -1.2, ., ., 6, 104
- CCCCN(CCCNC(=O)C1CCN(S(=O)(=O)N2CCOCC2)CC1)c1ccccc1
 : i, 0.89, -1.7, ., ., -14, 94
- CCOc1ccc2nc(NC(=O)CN3CCOCC3)sc2c1
 : i, 0.98, ., ., ., 3, 104
- COc1cc(-c2ccccc2)nc(N)n1
 : i, 1.1, -1.6, -52, 42, -4, 109
- CC1CN(C(=O)CCn2c(=O)oc3ccccc32)CC(C)O1 (configuration not stated)
 : i, 0.84, -4.7, ., ., -4, 104
- CCOc1ccc(CN2CCCC(CNC(=O)c3ccc(F)cc3)C2)cc1CO (configuration not stated)
 : i, 0.98, ., 39, 150, -1, 97
- FC(F)(F)c1cc(-c2ccco2)nc(NCc2cccs2)n1
 : i, 1, -2.1, ., ., 3, 97
- CCN(CCCNC(=O)C1CCN(S(=O)(=O)N2CCOCC2)CC1)c1cccc(C)c1
 : i, 0.97, 1.7, -114, 63, 9, 100
- Cn1c(C(=O)NCc2cccnc2)cc2sccc21
 : i, 1.1, -3.2, -7, 123, -1, 120
- NCCN=C1NS(=O)(=O)c2ccccc21
 : i, 0.81, -2.3, -126, 76, -2, 108
- NC(=O)CS(=O)(=O)c1nc2ccccc2n1CC(=O)N1CCCCC1
 : i, 0.83, -5.4, -11, 161, -1, 103
- O=c1cc2c(nn1Cc1c(Cl)cccc1Cl)-c1ccccc1CC2
 : i, 0.76, 1.5, 9, 103, 3, 114
- COC(=O)c1c(C(=O)OC)c2n(c1C)CCS2
 : i, 1, ., ., ., ., 96
- O=C(Oc1ccc(-n2cnnn2)cc1)c1ccco1
 : i, 0.82, -4.0, ., ., 2, 95

Part of the list above, comma-delimited.
smiles,HSV replic up,HSV replic up primary fold,GALR2 ag,INS promoter inh,INS promoter inh cell count,PKD1 kinase inh,RGS16-Gao
O=c1cc2c(nn1Cc1c(Cl)cccc1Cl)-c1ccccc1CC2,i,0.76,1.5,9,103,3,114
COc1ccc(-c2cn3ccc(C)cc3n2)cc1,i,0.98,.,.,.,.,93

Following part:
The line under a structure holds: HSV replic up, HSV replic up primary fold, GALR2 ag, INS promoter inh, INS promoter inh cell count, PKD1 kinase inh, RGS16-Gao
- N#Cc1cc(N2CCCCC2)c([N+](=O)[O-])cc1C#N
 : i, 0.98, -1.3, 14, 93, -2, 95
- O=C(NCCC(=O)N1CCN(c2ncccn2)CC1)c1ccccc1Cl
 : i, 1, -1.6, ., ., 1, 75
- COC(=O)c1ccccc1NC(=O)C1CCCN(S(C)(=O)=O)C1 (configuration not stated)
 : i, 1.1, -2.8, 30, 12, -2, 97
- OCCN1CCN(Cc2cc(Cl)c3cccnc3c2O)CC1
 : i, 0.98, -4.3, 16, 132, 2, 28
- Cc1cc(-n2nc(C)cc2C)nc(NS(=O)(=O)c2ccccc2)n1
 : i, 1.2, -1.0, ., ., 1, 127
- Cc1cc(C(F)(F)F)nn1CC(=O)NNC(=S)NCC(C)C
 : i, 1.1, -1.4, 38, 89, -3, 101
- COC(=O)c1ccc2c(=O)n(CCO)c(=S)[nH]c2c1
 : i, 1, -0.2, 2, 86, -2, 97
- O=C(Cc1ccc(Br)cc1)N/N=C/c1ccc(-c2cccc(C(=O)O)c2)o1
 : i, 1.1, ., ., ., ., 101
- CC1=CC2=NC(=O)/C(=C\c3cccn3CCOc3cc(C)ccc3C)C(=N)N2O1
 : i, 0.88, 0.8, -31, 76, 1, 97
- CC(=O)Nc1ccc(NC(=O)CSc2ccc(-c3cccs3)nn2)cc1
 : i, 0.92, ., ., ., 9, 103
- CCCCNS(=O)(=O)c1ccc2c(c1)oc(=O)n2CC(=O)OCC
 : i, 0.75, -2.9, ., ., -9, 102
- Cc1[nH]c2ccccc2c1Cc1nnc(SCCC#N)o1
 : i, 0.92, -1.8, 0, 41, -2, 108
- COc1ccc(S(=O)(=O)NCCCCCC(=O)NCCCN2CCOCC2)cc1
 : i, 1, -0.5, 27, 92, -5, 104
- CS(=O)(=O)N(Cc1ccccc1)c1ccc(C(=O)NCc2cccnc2)cc1
 : i, 0.97, -2.2, 44, 91, 2, 101
- O=C1CC(C(=O)Nc2ccccc2)C2(CCCCC2)O1 (configuration not stated)
 : i, 0.9, -0.7, 7, 128, 3, 103
- O=C1/C(=C\c2ccsc2)NC(=S)N1c1ccccc1
 : i, 1, ., 33, 110, -5, 104
- COC(=O)C(CC(=O)c1ccc(Cl)cc1)c1ccc(C)cc1 (configuration not stated)
 : i, 0.91, -3.4, 58, 91, 13, 127
- COc1ccc(-n2c(C)cc(C(=O)CSc3ccc(NC(C)=O)cc3)c2C)cc1
 : i, 0.95, -1.5, -23, 142, 7, 106
- CCC(=O)Nc1nnc(CSCc2ccccc2)s1
 : i, 0.82, -0.4, 36, 76, -6, 100
- C(#CCN1CCC(Cc2ccccc2)CC1)COCCOCc1ccccc1
 : i, 1, 0.5, -13, 121, -6, 99
- COc1ccccc1NC(=O)Cc1c(F)cccc1Cl
 : i, 1.1, -2.1, ., ., -15, 101
- S=c1[nH]nc(-c2ccco2)n1/N=C/c1cccs1
 : i, 1.1, 0.1, ., ., -7, 100
- CC(C)(C)c1nnc(NC(=O)CN2C(=O)C3C4C=CC(C4)C3C2=O)s1 (configuration not stated)
 : i, 0.76, -1.8, 75*, 135*, 8, 95
- CCN(c1cccc(C(F)(F)F)c1)S(=O)(=O)c1ccc2c(c1)CCN2C(=O)C1CC1
 : i, 0.86, -3.3, -13, 104, -16, 104
- Cc1cccc(OCC(=O)NCC(=O)N/N=C/c2c(C)[nH]c3ccccc23)c1
 : i, 0.84, ., ., ., ., 101
- CN(C)CCN1C(=O)c2oc3ccc(F)cc3c(=O)c2C1c1ccncc1 (configuration not stated)
 : i, 0.94, -3.2, ., ., -8, 160
- CC(C)c1ccc(NC(=S)NCc2ccc3c(c2)OCO3)cc1
 : i, 0.94, ., 36, 113, -4, 134
- CC1C(=NO)C(C)C(c2ccccc2)NC1c1ccccc1 (configuration not stated)
 : i, 1.1, -0.9, ., ., 5, 88
- O=C1CS/C(=N/N=C/c2ccc(OS(=O)(=O)c3ccccc3)cc2)N1
 : i, 0.91, ., 61, 91, -6, 104
- COC(=O)c1ccc(S(=O)(=O)NCc2ccco2)n1C
 : i, 1.2, ., ., ., ., 102
- COc1cccc(N(CC(=O)NCc2cccnc2)S(C)(=O)=O)c1
 : i, 1.1, 0.0, 36, 157, 7, 100
- CC(=O)c1ccc(NC(=S)N2CCN(C(=S)Nc3ccc(C(C)=O)cc3)C(C)C2)cc1 (configuration not stated)
 : i, 0.93, ., ., ., 9, 99
- CC(C)(C)OC(=O)NCCCC[C@H](NC(=O)c1[nH]cnc1C(=O)Nc1ccc(CNC(=O)OC(C)(C)C)cc1)C(=O)OC(C)(C)C
 : i, 0.65, ., ., ., ., 98
- COC(=O)C1=C(C)N(Cc2ccccc2)C(=O)N[C@H]1c1cccc(C(F)(F)F)c1
 : i, 0.86, ., ., ., ., 96
- CSc1ccc(/C=C(\C(=O)O)c2ccc(S(=O)(=O)N3CCCCC3)s2)cc1
 : i, 1.1, 0.6, ., ., -9, 58
